Tg IFNy HTS: blocks Toxoplasma gondii growth in the presence of IFN-gamma | Toxoplasma gondii growth in IFN-gamma-treated host cells; stronger effect = lower value; reference of the scale not given here | activity change, negative = inhibition, %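 (about 20 µM by stock and volumes)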 | 69,000 compounds, 3.8% hits | AID 1259416;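 active = below -70%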;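 note: host cells are HeLa cells infected with Toxoplasma gondii; parasite growth read as luciferase light; one replicate is shown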
Numbers without * were called inactive; & = joins results of further samples. These rows are one share of the data (hit frequency here may not be typical).

For COc1cc2c(cc1C1CC(=O)Nc3cc4[nH]ncc4cc31)OCCCO2 (stereo unspecified) the results were Tg IFNy HTS 2.1.
Screening COc1ccc(C(N)=O)cc1-c1cccc(OC(C)C)c1 returned Tg IFNy HTS 1.0.
Screening COc1ccc(-n2cccn2)c(CN2CCC(O)(CO)CC2)c1 returned Tg IFNy HTS 51.0.
`O=C(NCc1cccs1)C1CC(=O)N(c2ccc(OCC(=O)N3CCCC3)cc2)C1` (stereo unspecified) gave Tg IFNy HTS -10.5.
`OC[C@@H]1[C@H](c2ccccc2)C2(CN(CCC(F)(F)F)C2)N1Cc1nccs1` gave Tg IFNy HTS -14.0.
For CC(C)(C)c1cn(C2CCN(C(=O)c3ccc4nccnc4c3)CC2)nn1 the results were Tg IFNy HTS -3.3.
For CO[C@H]1CN(C)C(=O)c2cc(NC(=O)Nc3c(C)noc3C)ccc2OC[C@@H](C)NC[C@H]1C the results were Tg IFNy HTS 3.6.
CCN(CCNc1nc(-c2ccccc2Cl)nc2ccccc12)c1cccc(C)c1 was read as Tg IFNy HTS -58.8.
Cn1nc(CN2CCCC(OCc3cccnc3)C2)c2c(Cl)cccc21 (stereo unspecified) was read as Tg IFNy HTS 8.2.
For CN(C)c1ncnc2c1CCN(C(=O)c1c[nH]c3c(F)cccc3c1=O)C2 the results were Tg IFNy HTS -1.8.
Screening COc1cc(OC)c(NC(=O)Nc2cc(C)on2)cc1Cl returned Tg IFNy HTS 12.9&0.1.
COCCN1CC2(CCN(C(=O)c3cncnc3)CC2)CC1=O was read as Tg IFNy HTS 8.4.
`C(=C\c1ccccc1)/CN1CCN(CCn2cncn2)CC1` gave Tg IFNy HTS -3.5.
Screening CNC(=O)C[C@@H]1CC[C@@H]2[C@H](COC[C@@H](O)CN2Cc2ccccc2F)O1 returned Tg IFNy HTS 36.8.
`OC1(C(F)(F)F)CC(c2ccncc2)=NN1` (stereo unspecified) gave Tg IFNy HTS -14.8.
Screening Cc1oc(C2CCN(C(=O)Nc3ccccc3)CC2)nc1C(=O)N1CCCC1 returned Tg IFNy HTS 40.9.
Screening COCCNC(=O)C1CN(Cc2cccc(C)n2)Cc2ccnn2C1 (stereo unspecified) returned Tg IFNy HTS 6.6.
COCCn1cnnc1Cn1ccnc1-c1ccccc1C was read as Tg IFNy HTS 0.8.
`CC(=O)OCC(=O)[C@H]1CC[C@H]2[C@@H]3CC=C4C[C@@H](O)CC[C@]4(C)[C@H]3CC[C@]12C` gave Tg IFNy HTS -34.9.
Screening CCc1cnc(N2CCC3(CC(Nc4cccc(C#N)n4)CO3)C2)nc1 (stereo unspecified) returned Tg IFNy HTS -4.4.
For COCc1nnc2n1N=C(c1ccccc1)CS2 the results were Tg IFNy HTS 7.6.
`C[C@@H](NC(=O)C[C@@H]1CC[C@H]2[C@H](COc3ccc(NC(=O)C4CCOCC4)cc3C(=O)N2C)O1)c1ccccc1` gave Tg IFNy HTS -4.2.
`COc1ccc(CN(C)C[C@@H]2OCc3cnnn3CCCC(=O)N([C@@H](C)CO)C[C@@H]2C)cc1` gave Tg IFNy HTS -31.0.
For CC(=O)c1cccc(-c2ccc(NCCO)nn2)c1 the results were Tg IFNy HTS -0.6.
Screening CCNC(=S)N1CCC(NC(=O)NC23CC4CC(CC(C4)C2)C3)CC1 returned Tg IFNy HTS 2.4.
Screening C=CCOCc1nnc2n1CCN(C(=O)c1ccc[nH]1)C2 returned Tg IFNy HTS -0.7.
For Cc1ncc(C(=O)N2CCC(c3cc(Cc4ccccc4)[nH]n3)CC2)c(C)n1 the results were Tg IFNy HTS 6.0.
O=C(Cc1cccs1)N1CCc2c([nH]c3ccccc23)C1c1ccc(Cl)cc1 (stereo unspecified) was read as Tg IFNy HTS -118.1*.
`CCCCNc1nc(-c2ccc(OC)cc2)nc2ccccc12` gave Tg IFNy HTS -59.0.
For CCCn1cnnc1CNC1CCc2ccc(OC)cc2C1 (stereo unspecified) the results were Tg IFNy HTS 5.0.
For CCC(C)(C)NC(=O)CN1C(=O)CCc2cc(S(=O)(=O)N3CCC(C)CC3)ccc21 the results were Tg IFNy HTS 18.1.
For CCc1ccc(-c2nccn2-c2ccc(-c3n[nH]c(C)n3)cc2)o1 the results were Tg IFNy HTS -9.0.
Screening COc1ccc(CNC(=O)CC2N=C3c4ccccc4N=C(SCc4ccccc4F)N3C2=O)cc1 (stereo unspecified) returned Tg IFNy HTS 5.1.
Screening Cc1cccc(CN(Cc2ccccc2)C(=O)c2nc(C)oc2C)n1 returned Tg IFNy HTS 0.4.
Screening O=C(C[C@H]1C=C[C@@H](NC(=O)Cc2cccnc2)[C@@H](CO)O1)NCc1ccc2c(c1)OCO2 returned Tg IFNy HTS 12.4.
`Cc1ccc(CN2C[C@@H]3C[C@H](CNC(=O)c4cccn4C)O[C@H]3C2)o1` gave Tg IFNy HTS 14.0.
`COc1ccc(S(=O)(=O)N2CCC(c3nc(C(=O)N(C)C)c(C)o3)CC2)cc1` gave Tg IFNy HTS -5.0.
For O=C1N(Cc2ccccn2)C(=O)C2(CCN(Cc3ccc4c(c3)OCO4)CC2)N1CCc1ccccc1 the results were Tg IFNy HTS 1.2.
`Cc1cc2ncc(S(=O)(=O)C(C)(C)C)c(N)n2n1` gave Tg IFNy HTS 13.0.
For Cc1ccc(CNc2cccc(C(=O)N(C)CCC3CCOCC3)c2)cc1 the results were Tg IFNy HTS -24.9.

In the list so far, nine contain sulfur.
`O=C(NCc1cccs1)C1CC(=O)N(c2ccc(OCC(=O)N3CCCC3)cc2)C1` (stereo unspecified) gave Tg IFNy HTS -10.5.
`OC[C@@H]1[C@H](c2ccccc2)C2(CN(CCC(F)(F)F)C2)N1Cc1nccs1` gave Tg IFNy HTS -14.0.
For COCc1nnc2n1N=C(c1ccccc1)CS2 the results were Tg IFNy HTS 7.6.
Screening CCNC(=S)N1CCC(NC(=O)NC23CC4CC(CC(C4)C2)C3)CC1 returned Tg IFNy HTS 2.4.
O=C(Cc1cccs1)N1CCc2c([nH]c3ccccc23)C1c1ccc(Cl)cc1 (stereo unspecified) was read as Tg IFNy HTS -118.1*.
For CCC(C)(C)NC(=O)CN1C(=O)CCc2cc(S(=O)(=O)N3CCC(C)CC3)ccc21 the results were Tg IFNy HTS 18.1.
Screening COc1ccc(CNC(=O)CC2N=C3c4ccccc4N=C(SCc4ccccc4F)N3C2=O)cc1 (stereo unspecified) returned Tg IFNy HTS 5.1.
`COc1ccc(S(=O)(=O)N2CCC(c3nc(C(=O)N(C)C)c(C)o3)CC2)cc1` gave Tg IFNy HTS -5.0.
`Cc1cc2ncc(S(=O)(=O)C(C)(C)C)c(N)n2n1` gave Tg IFNy HTS 13.0.

Carrying on:
COC(=O)c1cc2n(n1)CCCN(Cc1c[nH]c3c(C)cccc13)C2 was read as Tg IFNy HTS -5.7.
O=S(=O)(c1ccccc1)N1[C@@H](CO)[C@@H]2c3ccccc3NC[C@@H]21 was read as Tg IFNy HTS 1.9.
Screening Cc1nn(-c2ccccc2)nc1C(=O)Oc1ccc(Cl)cc1 returned Tg IFNy HTS 46.1.
For CNc1cc(-c2ccccc2OCCn2ccnc2)c2cc[nH]c2n1 the results were Tg IFNy HTS 4.0.
O=C(O)COCc1ccc(Br)cc1 was read as Tg IFNy HTS 24.5.
`COc1cc(-c2cccc(NC(C)=O)c2)cc(OC)c1OC` gave Tg IFNy HTS 11.3.
For N=C(N)c1ccc(N=NNc2ccc(C(=N)N)cc2)cc1 the results were Tg IFNy HTS 13.4.
`Cc1cc(C)n(Cc2nc(-c3ccc(NC(=O)CCc4ccccc4)cc3)oc2C)n1` gave Tg IFNy HTS -69.2.
`CCCNC(=O)c1cc(-c2cnc(N(C)C)nc2)cn1CC1CC1` gave Tg IFNy HTS -2.6.
Screening O=C(CNCCC1=CCCCC1)Nc1ccccc1N1CCCCC1 returned Tg IFNy HTS -34.5.
`Cc1nc(CN2CCC(N(C)Cc3ccccc3)CC2C(=O)O)cs1` (stereo unspecified) gave Tg IFNy HTS -10.1.
Cc1cccc(C)c1NC(=O)c1nnn(Cc2nc(-c3cccc(Cl)c3)oc2C)c1C was read as Tg IFNy HTS 26.2.
Screening COc1cccc(-c2nc(Cn3nnc(C(=O)Nc4ccc(C)cc4Cl)c3C)c(C)o2)c1OC returned Tg IFNy HTS 60.3.
`CCCC(=O)N1CC[C@H]2[C@H](CC1)S(=O)(=O)CCN2C` gave Tg IFNy HTS inactive.
For Cc1cc(C)n2ncc(CN3CCC(Cc4noc(C5CC5)n4)CC3)c2n1 the results were Tg IFNy HTS -28.3.
O=C(CN1C(=O)CCc2cc(S(=O)(=O)N3CCCC3)ccc21)Nc1cccc(F)c1 was read as Tg IFNy HTS -18.6.
CCCNC(=O)N1CC2(C1)CN(C(=O)c1ccccc1)[C@@H](CO)c1[nH]c3cc(OC)ccc3c12 was read as Tg IFNy HTS 168.9.
Cc1nc(CN2CCOCC23CCN(CC(C)(C)O)CC3)cs1 was read as Tg IFNy HTS 45.5.
`COc1cc2c(cc1C(=O)N(C)Cc1nc(C)no1)CCC2` gave Tg IFNy HTS 1.4.
Screening O=[N+]([O-])c1cc(/C=N/n2cnnc2)ccc1N1CCCC1 returned Tg IFNy HTS -90.4*.
For N#C[C@H]1[C@@H](c2ccc(-c3cccc(F)c3)cc2)[C@H](CO)N1C(=O)NC1CCCC1 the results were Tg IFNy HTS -46.8.
For O=C(Nc1cccc(F)c1)N1C[C@H]2[C@@H](c3ccccc31)[C@@H](CO)N2C(=O)Cc1ccccn1 the results were Tg IFNy HTS 1.2.
For O=C(NCCc1nc(-c2ccccc2)cs1)c1ccc(-n2cnnc2)cc1 the results were Tg IFNy HTS -0.8.
`CCOC(=O)Cn1c(=O)c2c(nc3n2CCCCN3c2ccc(OCC)cc2)n(C)c1=O` gave Tg IFNy HTS -14.1.
For Cc1ccc(C2(CNC(=O)c3cnn4cc(CCO)cnc34)CCOCC2)cc1 the results were Tg IFNy HTS 11.9.
For CC(=O)c1ccccc1NC(=O)CCN1CCSCC1 the results were Tg IFNy HTS 0.2.
For Cc1cc(C)cc(NC(=O)N2CCC3(CC2)NC(=O)c2cc(F)ccc2N3C)c1 the results were Tg IFNy HTS 18.8.
`C[C@@H]1CN([C@@H](C)CO)C(=O)c2c(c3ccccc3n2C)-c2ccccc2CO[C@H]1CN(C)C(=O)NC1CCCCC1` gave Tg IFNy HTS -5.2.
Screening O=C(Cn1cc(C(F)(F)F)ccc1=O)c1ccc(Cl)cc1Cl returned Tg IFNy HTS -50.6.
CC(C)c1noc(-c2cc(=O)n(CC(=O)NCc3ccccc3Cl)c3ccccc23)n1 was read as Tg IFNy HTS 32.4.
`CC(C)(C)NC1=NCCNC12CCN(S(=O)(=O)c1ccc3c(c1)CCCC3)CC2` gave Tg IFNy HTS 2.6.
CCCCc1nc2ccccc2c(NC(=O)CNC(C)(C)C)c1CCC was read as Tg IFNy HTS -66.8.
`CCc1ccc(CNC(=O)c2c(O)c3cccnc3[nH]c2=O)cc1` gave Tg IFNy HTS -41.2.
CCN1CCN(C)C2(CCN(C(=O)c3ccn[nH]3)CC2)C1=O was read as Tg IFNy HTS 13.6.
`O=C(c1ccccn1)N1C[C@@H]2[C@H](c3ccccc31)[C@@H](CO)N2C(=O)C1CCCCC1` gave Tg IFNy HTS -1.3.
Screening CC(NC(=O)c1cn(Cc2ccccc2F)nn1)c1ccccc1-n1cccn1 (stereo unspecified) returned Tg IFNy HTS -13.5.
`COc1cc(CNc2nc(-c3nnc(-c4ccc(C)cc4)o3)nc3ccccc23)cc(OC)c1OC` gave Tg IFNy HTS -45.7.
`C=CC(=O)N1CCCCC1` gave Tg IFNy HTS 14.7.
For CCOC(=O)N1c2ccc(C(F)(F)F)cc2[C@@H](N(Cc2cc(C(F)(F)F)cc(C(F)(F)F)c2)C(=O)OC)C[C@H]1CC the results were Tg IFNy HTS -21.8.
`CCn1c(/C=C/c2ccccc2)nc2ccccc2c1=O` gave Tg IFNy HTS 0.6.
For Cc1nc2c(c(NC3CC3)n1)CCN(C(=O)CCC(=O)O)CC2 the results were Tg IFNy HTS 10.3.
For COC(=O)[C@H]1[C@H](CO)[C@H]2Cn3c(ccc(/C=C/c4ccccc4)c3=O)[C@H]2N1CCC(F)(F)F the results were Tg IFNy HTS -8.0.
`S=C(Nc1ccccc1)N1CCOCC1` gave Tg IFNy HTS -48.2.
O=C(O)C1C2C=CC(C2)C1C(=O)NCCN1CCOCC1 (stereo unspecified) was read as Tg IFNy HTS 1.9.
Screening CO[C@@H]1CC[C@@H]2CCOc3ccc(C#N)cc3C(=O)N(C)C[C@@H](c3ccccc3)CC(=O)N(C)C[C@@H]1O2 returned Tg IFNy HTS -35.2.
Screening CC(=O)N(c1ccccc1)c1nc(C)cc(C)c1C#N returned Tg IFNy HTS -11.3.
For CCS(=O)(=O)N(C)C1c2cc(C#N)ccc2OC(C)(C)C1O (stereo unspecified) the results were Tg IFNy HTS -6.7.
Screening Nc1nnc(CSCc2ccc(Cl)cc2Cl)s1 returned Tg IFNy HTS -34.6.
For COc1ccc(-n2ccnc2-c2nc(-c3cccs3)oc2C)cn1 the results were Tg IFNy HTS 8.5.
Screening C[C@@H]1CCCCO[C@H](CN(C)C(=O)CCCN(C)C)[C@@H](C)CN([C@H](C)CO)C(=O)c2cc(NS(=O)(=O)c3ccc(Cl)cc3)ccc2O1 returned Tg IFNy HTS -41.8.
CCc1nc(OCC(=O)NCc2ccc(C)cc2)c2ccccc2n1 was read as Tg IFNy HTS -4.9.
`O=C(c1ccc2c(c1)OCO2)N1CCCC2(C1)Nc1cccnc1NC2=NC1CCCC1` (stereo unspecified) gave Tg IFNy HTS -27.0.
`CN(C)CC(=O)N1CC2(C1)[C@H](c1ccccc1)[C@H](CO)N2Cc1cc(F)ccc1F` gave Tg IFNy HTS -14.8.
`CC(=O)c1ccc(C(=O)N2CCCC3(C=Cc4ccccc4O3)CC2)cc1` (stereo unspecified) gave Tg IFNy HTS -24.2.

High-throughput results from PubChem.
